Screening data as filed in PubChem BioAssay.
GPT2 inh: blocks human glutamate pyruvate transaminase 2. Q8TD30. Recombinant GPT2, coupled pyruvate oxidase/HRP Amplex Red fluorescence. Potency, µM (series often up to 57.7 µM), for the others: at the top dose activity change, negative = inhibition, hits mostly inhibitors. hit rate 0.25% among 100,000; also: potency is read from the fitted curve at half-maximal effect; nearly all actives have a fitted effect of over 60% in size; many of its hits are not listed in these tables
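Recombinant GPT2 (10ng/uL) with 250uM a-KG and 2mM L-alanine, 30 min at room temperature, in HEPES pH 7.5 buffer. Pyruvate detected by pyruvate oxidase/HRP/Amplex Red fluorescence after 30 min in the dark; AOA (50uM) as positive control.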
IP6K1 inhibitor: IP6K1 kinase inhibition; Q92551; IP6K1 kinase, ADP-Glo luminescence, 2 h; active compounds read low; activity change, % (series mostly up to about 58 µM); hit rate 0.81% among 140,000; in the data active = activity change below about -25%
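ADP-Glo luminescence measures ADP made by human IP6K1 during a 2 h RT reaction with ATP/IP6 (mix at 1.3 mM/130 uM); top library doses 57.5 and 19.1 uM final.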
SNCA expr inhib: inhibitors of alpha-synuclein (SNCA) gene expression; HEK-293 SNCA-luciferase knock-in, luminescence, 24 h; Potency, µM (top dose mostly 57.2 µM), for the others: at the top dose activity change, negative = inhibition, most hits filed as inhibitors; hit rate 0.17% among 140,000;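 also: potency is read from the fitted curve at half-maximal effect; plate controls were DMSO cells for no effect and cell-free wells for full effect; nearly all actives have a fitted effect of over 45% in size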
Luciferase inh: Photinus pyralis luciferase inhibition. P08659. purified P. pyralis luciferase, luminescence, biochemical. Potency, µM (titrated, usually from 115 µM), inactives show at the highest dose activity change, negative = inhibition, most hits filed as inhibitors. hit rate 2.5% among 76,000. AID 1347043; also: potency is read from the fitted curve at half-maximal effect; nearly all actives have a fitted effect of over 65% in size
Target sequence (P08659 whole entry, looked up): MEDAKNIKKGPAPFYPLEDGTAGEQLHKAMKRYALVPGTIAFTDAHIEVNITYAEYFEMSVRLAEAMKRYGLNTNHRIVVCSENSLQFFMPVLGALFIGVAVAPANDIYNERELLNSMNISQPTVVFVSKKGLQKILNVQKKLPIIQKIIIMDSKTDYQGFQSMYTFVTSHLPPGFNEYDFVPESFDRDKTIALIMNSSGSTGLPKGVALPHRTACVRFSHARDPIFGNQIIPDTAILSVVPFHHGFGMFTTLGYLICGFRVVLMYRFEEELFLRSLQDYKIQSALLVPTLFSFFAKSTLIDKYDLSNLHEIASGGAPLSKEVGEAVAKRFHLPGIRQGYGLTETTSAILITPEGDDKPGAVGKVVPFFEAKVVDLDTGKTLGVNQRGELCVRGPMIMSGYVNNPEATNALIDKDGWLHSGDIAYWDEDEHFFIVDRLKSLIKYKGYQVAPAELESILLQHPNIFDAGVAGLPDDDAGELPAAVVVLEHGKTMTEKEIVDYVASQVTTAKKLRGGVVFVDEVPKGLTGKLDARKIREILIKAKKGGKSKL
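FLuc 10nM, D-luciferin 10uM, ATP 10uM, Mg acetate 10mM, Tris acetate pH 7.5, Tween/BSA; cpd qHTS; enzyme added last; CCD luminescence.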
* = called active by the depositor; i = inactive; ? = inconclusive; . = not tested or not shown; & = joins results of further samples; [ ] = dose if it differs, or a comment. Unless noted, calls follow the shape of the dose curve; as a rule, active = well fitted curve in the direction sought with a large enough effect; inconclusive = small, poorly fitted or top-dose-only effect, or another doubt; inactive = no such curve, though single readings can be large; an effect the other way counts as inactive or inconclusive. Unless noted, % is scaled to controls: 0 for no effect and ±100 for the full control effect. Not all compounds are listed, so the mix of outcomes need not match the whole.

1) COc1ccc(C(=O)N2CCOC[C@H](Oc3cnccn3)C2)cc1
2) COCCNc1ncnc2c1CCN(C(=O)c1cscn1)CC2
3) CN1C2CCCC1CC(NC(=O)c1nn(C)c3ccccc13)C2 (stereo not drawn)
4) O=C(NC1CC1)c1ccc(-c2ccc(N3CCCCCC3)nc2)cc1
5) COc1cc2ncnc(Nc3ccc(F)c(Cl)c3)c2cc1OCCCN1CCOCC1
6) CN[C@H]1CC[C@@H](c2ccc(Cl)c(Cl)c2)c2ccccc21
7) COc1ccnc(-c2nnc3ccc(NCc4cnccn4)nn23)c1
8) Cn1ccc(NC(=O)c2ccc(-c3ncc4cnc(-c5ccccc5)cn34)cc2)n1
screen / no.,1,2,3,4,5,6,7,8
SNCA expr inhib,13%[87.6 µM],-16%,7%,63%[activator],?,0%,-5%[87.6 µM],7%[87.6 µM]
GPT2 inh,-7%[88.5 µM],-15%,i,i,-9%,-10%,-6%[88.5 µM],-4%[88.5 µM]
Luciferase inh,-2%[172 µM],-9%,.,-3%,.,.,.,-6%[172 µM]
IP6K1 inhibitor,-7,30,.,13,0&-18,32,-16,-8

Single records, from the list above. Screens in order: SNCA expr inhib | GPT2 inh | Luciferase inh | IP6K1 inhibitor
Entry for CN[C@H]1CC[C@@H](c2ccc(Cl)c(Cl)c2)c2ccccc21 → 0% | -10% | . | 32
Entry for Cn1ccc(NC(=O)c2ccc(-c3ncc4cnc(-c5ccccc5)cn34)cc2)n1 → 7%[87.6 µM] | -4%[88.5 µM] | -6%[172 µM] | -8
Entry for COCCNc1ncnc2c1CCN(C(=O)c1cscn1)CC2 → -16% | -15% | -9% | 30
Entry for CN1C2CCCC1CC(NC(=O)c1nn(C)c3ccccc13)C2 (stereo not drawn) → 7% | i | . | .
Entry for COc1ccnc(-c2nnc3ccc(NCc4cnccn4)nn23)c1 → -5%[87.6 µM] | -6%[88.5 µM] | . | -16

Copied from the list:
cpd 5 in GPT2 inh shows -9%
cpd 1 in SNCA expr inhib shows 13%[87.6 µM]
cpd 7 in IP6K1 inhibitor shows -16
cpd 8 in IP6K1 inhibitor shows -8
cpd 6 in IP6K1 inhibitor shows 32
cpd 2 in GPT2 inh shows -15%
cpd 4 in IP6K1 inhibitor shows 13

The results go on.
9) N#C[C@@H]1CCCN1C(=O)CNC12CC3CC(CC(O)(C3)C1)C2
10) CO[C@@H]1[C@H](N(C)C(=O)c2ccccc2)C[C@H]2O[C@]1(C)n1c3ccccc3c3c4c(c5c6ccccc6n2c5c31)C(=O)NC4
11) FC(F)(F)c1ccc2nc([C@H]3CCN(Cc4ncc[nH]4)C3)[nH]c2c1
12) O=C1COCCN1c1cc(-c2ccccc2)cn2cncc12
13) Cc1noc(C)c1-c1cc(-c2ccccc2)cn2cncc12
14) O=C(c1cccnc1)N1CCC(Oc2ccccc2)C1 (stereo not drawn)
screen / no.,9,10,11,12,13,14
SNCA expr inhib,.,1%,-8%[87.6 µM],9%[87.6 µM],22%[87.6 µM],1%
GPT2 inh,i,0%,-13%[88.5 µM],?,-10%[88.5 µM],-2%
Luciferase inh,.,.,0%[172 µM],.,-4%[230 µM],8%
IP6K1 inhibitor,-3,.,13,-17,-13,15

Three structures from above, arranged by formula weight, lowest first:
13) Cc1noc(C)c1-c1cc(-c2ccccc2)cn2cncc12
12) O=C1COCCN1c1cc(-c2ccccc2)cn2cncc12
9) N#C[C@@H]1CCCN1C(=O)CNC12CC3CC(CC(O)(C3)C1)C2
screen / no.,13,12,9
SNCA expr inhib,22%[87.6 µM],9%[87.6 µM],.
GPT2 inh,-10%[88.5 µM],?,i
Luciferase inh,-4%[230 µM],.,.
IP6K1 inhibitor,-13,-17,-3
